Assay outcomes deposited in PubChem by several laboratories.
Mtb growth = M. tuberculosis H37Rv growth inhibitors, H37Rv strain (AID 1626). M. tuberculosis H37Rv growth inhibition; higher % means a stronger effect. one-dose inhibition, % at 10 µM; IC50 in µM for titrated hits. 220,000 tested, 0.95% active;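 active means confirmed in a dose series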;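 further: bacteria incubated seven days before Alamar blue readout; 0% = bacteria only wells and 100% = bacteria with antibiotic wells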
YopH inh = inhibitors of Yersinia enterocolitica YopH tyrosine phosphatase; inhibition, %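 (about 10 µM by stock and volumes)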; fluorescence Ex485/Em525; AID 898; 140,000 tested, 0.16% active;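 active means inhibition of 50% or more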;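 further: controls were vehicle for no effect and minimum signal wells for full effect; inactives centre near -20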
RecA splice inh = Mtb RecA intein splicing inhibition | cell-free RecA intein splicing, fluorescence | inhibition, %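 (about 9 µM by stock and volumes)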 | 290,000 tested, 0.75% active | AID 2221; in the data active means inhibition above about 30%;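 further: 0% = vehicle wells and 100% = reference inhibitor control wells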
Target sequence (P9WHJ3 whole entry, looked up, canonical isoform): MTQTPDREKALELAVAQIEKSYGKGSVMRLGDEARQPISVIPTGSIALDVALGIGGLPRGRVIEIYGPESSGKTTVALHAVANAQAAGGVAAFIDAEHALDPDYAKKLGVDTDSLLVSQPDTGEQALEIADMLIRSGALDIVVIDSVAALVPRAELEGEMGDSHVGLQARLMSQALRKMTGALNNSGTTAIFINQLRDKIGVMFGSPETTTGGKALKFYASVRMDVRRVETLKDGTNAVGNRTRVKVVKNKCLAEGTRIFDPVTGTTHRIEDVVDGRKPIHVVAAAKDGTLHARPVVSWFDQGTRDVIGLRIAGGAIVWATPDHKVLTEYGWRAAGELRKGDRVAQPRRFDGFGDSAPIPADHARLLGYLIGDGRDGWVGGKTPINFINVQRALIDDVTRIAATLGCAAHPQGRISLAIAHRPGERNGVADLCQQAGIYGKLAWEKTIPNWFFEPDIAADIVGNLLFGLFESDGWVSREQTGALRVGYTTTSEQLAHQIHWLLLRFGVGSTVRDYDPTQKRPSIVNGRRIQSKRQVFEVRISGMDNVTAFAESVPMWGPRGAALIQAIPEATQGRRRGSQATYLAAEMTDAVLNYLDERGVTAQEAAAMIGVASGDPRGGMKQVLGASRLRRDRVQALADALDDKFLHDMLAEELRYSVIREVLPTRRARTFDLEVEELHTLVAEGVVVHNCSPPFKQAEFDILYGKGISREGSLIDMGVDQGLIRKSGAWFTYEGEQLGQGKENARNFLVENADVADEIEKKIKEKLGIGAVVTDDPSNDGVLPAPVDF
Arbovirus inh = antivirals against arbovirus infection; arbovirus infection cell-based antiviral screen; 200,000 tested, 0.37% active; inhibition, % at 10 µM;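 active means inhibition from about 30%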;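 further: bluetongue infection of BSR cells; cell survival read as ATP light after 72 h; 0% = infected wells without compound and 100% = uninfected wells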
Mtb betalactam = beta-lactam sensitization of Mtb H37Rv; M. tuberculosis H37Rv growth with meropenem, percent inhibition; hits of this screen are not shown here; inhibition, % at 25 µM; 330,000 tested, 0.27% active;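 active means about 74% or more and at least 40 points above the plate without the antibiotic, then above 30% in a dose series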;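 further: growth measured after seven days incubation then overnight dye step; 0% = bacteria only wells and 100% = bacteria with antibiotic; twin plates without the antibiotic show which effects depend on it; some results filed as inactive read as strong as hits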
Arbovirus inh repeat = second read-out of Arbovirus inh, no call of its own (marks repeat the call); inhibition, %; measured here: 10K subset replicate screen; many hits read low in the repeat;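 first of two repeat runs on a subset; 0% = infected and 100% = uninfected wells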
Active calls of the source: *. These rows are one share of the data. The share of hits here may be higher or lower than overall.

O=C(NCCn1ccc2ccccc21)C1CCCCC1 was read as Mtb growth 1%, YopH inh -28, RecA splice inh 0.1, Arbovirus inh -4, Mtb betalactam -4 and Arbovirus inh repeat 0.
CCOC(=O)c1sc(C)c(C(=O)NC2CCCCC2)c1N was read as Mtb growth 4%, YopH inh -11, RecA splice inh -2.3, Arbovirus inh -2 and Mtb betalactam 4.
Screening CC(C)S(=O)(=O)c1csc(NC(=O)Nc2ccc(Cl)cc2)c1 returned Mtb growth -17%, RecA splice inh -1.2 and Mtb betalactam -6.
For O=c1cc(CSc2nc3cc(Cl)ccc3o2)nc2sccn12 the results were Mtb growth 66%, YopH inh -32, RecA splice inh 2.5, Arbovirus inh 12 and Mtb betalactam 88.
CNC(=O)CSc1nnc(-c2cccnc2)n1-c1ccc(C)cc1 was read as Mtb growth -4%, RecA splice inh -1.2, Arbovirus inh 5 and Mtb betalactam -1.
O=C1CC(c2ccccc2)CC(O)=C1C=NCc1ccco1 (configuration not stated) was read as Mtb growth -6%, YopH inh 6, RecA splice inh -0.9, Arbovirus inh 6 and Mtb betalactam 11.
Screening CC(=O)Nc1cccc(-c2csc(N)n2)c1 returned Mtb growth 2%, RecA splice inh -3.0, Arbovirus inh 7 and Mtb betalactam 2.
`CCCOc1ccc(CNC(=O)c2ccc3c(c2)N(CC)CCS3)cc1` gave RecA splice inh -1.2 and Mtb betalactam -6.
O=c1[nH]c(=S)[nH]c2c1CN(Cc1ccc(F)cc1)CC2 was read as RecA splice inh -2.3 and Mtb betalactam -3.
Cc1c(OCC(=O)N2CCC(C(=O)O)CC2)ccc2c1oc(=O)c1ccccc12 was read as RecA splice inh -1.2 and Mtb betalactam -6.
CC(NC(=O)c1ccc2c(c1)OCO2)C(c1cccs1)N1CCOCC1 (configuration not stated) was read as Mtb growth -2%, YopH inh 5, RecA splice inh -0.1, Arbovirus inh 5 and Mtb betalactam -3.
`COc1ccc(OC)c(/C=C2\Oc3cc(OCC(=O)N4CCC(C(=O)O)CC4)ccc3C2=O)c1` gave RecA splice inh 5.0 and Mtb betalactam -2.
O=C1CCCC/C1=C/Nc1ccc(C(=O)O)cc1 was read as Mtb growth -10%, YopH inh 0, RecA splice inh -2.7, Arbovirus inh 6 and Mtb betalactam 13.
O=c1c2[nH]c3ccc(F)cc3c2ncn1CCN1CCOCC1 was read as Mtb growth -4%, YopH inh -37, RecA splice inh -1.0, Arbovirus inh 8 and Mtb betalactam 4.
`Cc1n[nH]c(=O)nc1NCc1ccco1` gave Mtb growth -8%, YopH inh -27, RecA splice inh 1.4, Arbovirus inh 2 and Mtb betalactam 0.
Screening O=C(Nc1ccc2[nH]c(=O)[nH]c2c1)c1cc(F)c(F)cc1Cl returned Mtb growth -10%, RecA splice inh -2.3 and Mtb betalactam -6.
For Cc1nnc(NC(=O)CSc2nc(C(C)C)nc3ccccc23)s1 the results were Mtb growth -6%, YopH inh -26, RecA splice inh -0.5, Arbovirus inh -14 and Mtb betalactam 1.
`CC(=O)OCC1=C(C(=O)O)N2C(=O)C(NC(=O)CCn3nc(C(F)(F)F)c(Br)c3C3CC3)C2SC1` (configuration not stated) gave Mtb growth 0%, RecA splice inh 14, Arbovirus inh 0 and Mtb betalactam 0.
For CCC1(c2ccc(F)cc2)NC(=O)N(CC(=O)Nc2cccnc2Cl)C1=O (configuration not stated) the results were RecA splice inh -2.5 and Mtb betalactam -16.
Screening COC(=O)c1ccccc1NC(=O)CN1CCC(n2nnc3cc(F)ccc32)CC1 returned Mtb growth -10%, YopH inh -97, RecA splice inh -0.1, Arbovirus inh 40* and Mtb betalactam -3.

Two entries drawn at random from those above, as already listed:
`CCCOc1ccc(CNC(=O)c2ccc3c(c2)N(CC)CCS3)cc1` gave RecA splice inh -1.2 and Mtb betalactam -6.
O=C1CC(c2ccccc2)CC(O)=C1C=NCc1ccco1 (configuration not stated) was read as Mtb growth -6%, YopH inh 6, RecA splice inh -0.9, Arbovirus inh 6 and Mtb betalactam 11.

The listing continues:
Screening O=C(c1cnc2n(c1=O)CCS2)N1CCN(c2ccc([N+](=O)[O-])cc2)CC1 returned Mtb growth 2%, YopH inh 1, RecA splice inh 2.8, Arbovirus inh 5 and Mtb betalactam -7.
Screening COc1ccc(-c2cc(C(=O)O)c3ccccc3n2)c(OC)c1 returned Mtb growth -7%, YopH inh -42, RecA splice inh -1.1, Arbovirus inh 1, Mtb betalactam -13 and Arbovirus inh repeat -2.
Screening CCCCNC(=O)N1CCN(S(C)(=O)=O)CC1 returned Mtb growth 1%, RecA splice inh -2.0, Arbovirus inh 4 and Mtb betalactam -7.
Screening O=C(O)C1CCC(N2C(=O)C3CCCCC3C2=O)CC1 (configuration not stated) returned Mtb growth -5%, YopH inh 6, RecA splice inh 4.0, Arbovirus inh -2 and Mtb betalactam 5.
Screening Cc1cc(NC(=O)Nc2ccccc2F)ccc1Br returned Mtb growth 1%, RecA splice inh 3.2, Arbovirus inh 6 and Mtb betalactam -2.
`COc1ccc(NS(=O)(=O)c2cc([N+](=O)[O-])ccc2N/N=C\c2c(C)[nH]c3ccccc23)cc1` gave Mtb growth 2%, YopH inh 0, RecA splice inh -1.5, Arbovirus inh 7 and Mtb betalactam 10.
`C=CCn1c(SC2CCOC2=O)nc2sc(C)c(C)c2c1=O` (configuration not stated) gave Mtb growth -5%, YopH inh -4, RecA splice inh 1.7, Arbovirus inh 1 and Mtb betalactam -13.
`Nc1nc2n(n1)C(c1cccc(Cl)c1)CC(c1ccc(F)cc1)N2` (configuration not stated) gave Mtb growth -12%, YopH inh -5, RecA splice inh -0.2, Arbovirus inh 1 and Mtb betalactam -4.
O=C(NCCc1c[nH]c2ccccc12)C(=O)Nc1cc2c3c(c1)CC(=O)N3CCC2 was read as RecA splice inh 2.8 and Mtb betalactam -11.
COc1ccc(CCN2CC(C(=O)NC3CCOCC3)CCC2=O)cc1 (configuration not stated) was read as RecA splice inh -4.6 and Mtb betalactam -8.
`CCc1cc(C(=O)OC)c(NC(=O)CC2SC(N)=NC2=O)s1` (configuration not stated) gave Mtb growth 4%, RecA splice inh -0.2, Arbovirus inh -12 and Mtb betalactam -3.
Screening O=C(COC(=O)CN1C(=O)c2ccccc2C1=O)Nc1ccc(S(=O)(=O)N2CCCC2)cc1 returned Mtb growth 2%, YopH inh -19, RecA splice inh 0.4, Arbovirus inh -2 and Mtb betalactam -1.
For COc1ccc(NC(=O)Cc2ccsc2)c(OC)c1 the results were RecA splice inh 1.3 and Mtb betalactam -2.
`CS(=O)(=O)c1ccc(C(=O)N2CCc3ccccc3C2)cc1` gave Mtb growth -3%, RecA splice inh -1.2, Arbovirus inh 17 and Mtb betalactam 8.
`Cc1cccc2c1CC(C)(C)N=C2C1=C(O)CCCC1=O` gave Mtb growth 0%, YopH inh -22, RecA splice inh 2.3, Arbovirus inh 5 and Mtb betalactam 0.
For O=C(c1cc([N+](=O)[O-])ccc1N1CCOCC1)N1CCN(S(=O)(=O)c2cc(Cl)ccc2Cl)CC1 the results were RecA splice inh -0.4 and Mtb betalactam 94.
For COc1ccc2ccccc2c1C1CC(=O)N2CN(C)CSC2=C1C#N (configuration not stated) the results were Mtb growth -11%, YopH inh -22, RecA splice inh 5.4, Arbovirus inh -1 and Mtb betalactam -1.
`Cc1ccc(CNC(=O)CCc2c(C)nn(-c3ccc(N4CCOCC4)nn3)c2C)cc1` gave RecA splice inh -4.5 and Mtb betalactam 0.
For CC1CC(C)CN(C(=S)NC2CCCCC2)C1 (configuration not stated) the results were Mtb growth 15%, YopH inh -10, RecA splice inh -2.2, Arbovirus inh -7 and Mtb betalactam 7.
CCCC(=O)Nc1nnc(SCC(=O)NCc2cccs2)s1 was read as Mtb growth -5%, YopH inh 1, RecA splice inh -1.6, Arbovirus inh 6 and Mtb betalactam 4.
Screening COC(=O)c1cc2ccccc2c(-c2c(OC)c(C(=O)OC)cc3ccccc23)c1OC returned Mtb growth -5%, YopH inh 4, RecA splice inh 18, Arbovirus inh -13 and Mtb betalactam -3.
For COC(=O)c1c(C)nc(C)c(C(=O)OC)c1-c1ccc(OC)c(OC)c1 the results were Mtb growth -1%, RecA splice inh 1.1, Arbovirus inh 1 and Mtb betalactam -1.
Nc1c(N2CCCCC2)c2ccccc2oc1=O was read as Mtb growth 6%, RecA splice inh -3.8, Arbovirus inh -2 and Mtb betalactam -12.
For CCOC(=O)[C@@H]1[C@H]2COc3ccccc3[C@@H]2N2C(=O)N(c3ccccc3)C(=O)[C@]12C the results were RecA splice inh 4.8 and Mtb betalactam -3.
For O=C(CC1Sc2ccccc2NC1=O)OCC(=O)N1CCc2ccccc21 (configuration not stated) the results were Mtb growth -4%, YopH inh -28, RecA splice inh -1.2, Arbovirus inh -2 and Mtb betalactam -5.
`O=C(N/N=C/c1c(O)n(C2CC2)c(=S)[nH]c1=O)c1ccccc1Cl` gave RecA splice inh -4.3 and Mtb betalactam 10.
For COC(=O)C1=C(C)N(C)C(C)=C(C(=O)OC)C1c1cccc(Br)c1 the results were Mtb growth 1%, YopH inh -16, RecA splice inh 6.7, Arbovirus inh -9, Mtb betalactam -1 and Arbovirus inh repeat -8.
`CNC(=S)Nc1ccc(C)cc1` gave Mtb growth -9%, YopH inh -24, RecA splice inh -3.7, Arbovirus inh 6 and Mtb betalactam 1.
Cc1ccc(F)cc1NC(=O)c1ccc2c(c1)OCO2 was read as Mtb growth -4%, YopH inh -1, RecA splice inh -7.6, Arbovirus inh 1 and Mtb betalactam -6.
`Cc1n[nH]c(=S)n1/N=C/c1ccc(OCc2ccc(Cl)cc2Cl)cc1` gave Mtb growth 7%, YopH inh -22, RecA splice inh 4.1, Arbovirus inh -15 and Mtb betalactam 6.
`CCOc1ccc(CCNC(=O)CCC(=O)N2CCSc3ccccc32)cc1OCC` gave RecA splice inh 0.1 and Mtb betalactam -1.
`CNC(=S)NCCC(c1ccccc1)c1ccccc1` gave Mtb growth 1%, YopH inh 6, RecA splice inh 0.2, Arbovirus inh 4 and Mtb betalactam 1.
Screening CN1CCCC(OC(=O)c2ccccc2F)C1 (configuration not stated) returned RecA splice inh -0.6 and Mtb betalactam 0.
For COc1ccc(-c2csc(Nc3cccc(C)n3)n2)cc1C the results were RecA splice inh 19 and Mtb betalactam 50.
`CC(Nc1nc(-c2ccccc2F)nc2ccccc12)c1ccccc1` (configuration not stated) gave RecA splice inh 19 and Mtb betalactam 27.
For COc1cccc(C2CC(c3ccc(Cl)cc3Cl)Nc3nc(N)nn32)c1 (configuration not stated) the results were Mtb growth 12%, YopH inh 9, RecA splice inh -0.2, Arbovirus inh 41* and Mtb betalactam 8.
`CCOC(=O)c1c(C)oc2c(CC(=O)c3ccccc3)c(Cl)c(O)c(O)c12` gave Mtb growth -4%, YopH inh -7, RecA splice inh -0.4, Arbovirus inh -7 and Mtb betalactam 4.
Cc1c(N(C(=O)CNC(=O)c2ccccc2)C2(C(=O)NC3CCCCC3)CCCCC2)c(=O)n(-c2ccccc2)n1C was read as Mtb growth 5%, RecA splice inh -3.0, Arbovirus inh 9 and Mtb betalactam -7.
COC(=O)c1ccccc1NC(=O)Cn1cc2c(n1)CCC(C)C2 (configuration not stated) was read as Mtb growth 5%, YopH inh -21, RecA splice inh 2.8, Arbovirus inh 7, Mtb betalactam -10 and Arbovirus inh repeat 4.
CCOC(=O)C1CCCN(Cc2nc(N)nc(Nc3ccccc3)n2)C1 (configuration not stated) was read as Mtb growth 4%, YopH inh -26, RecA splice inh -2.3, Arbovirus inh 6 and Mtb betalactam 21.

Structural class, the compounds so far containing an NH in an aromatic ring
O=c1[nH]c(=S)[nH]c2c1CN(Cc1ccc(F)cc1)CC2 was read as RecA splice inh -2.3 and Mtb betalactam -3.
O=c1c2[nH]c3ccc(F)cc3c2ncn1CCN1CCOCC1 was read as Mtb growth -4%, YopH inh -37, RecA splice inh -1.0, Arbovirus inh 8 and Mtb betalactam 4.
`Cc1n[nH]c(=O)nc1NCc1ccco1` gave Mtb growth -8%, YopH inh -27, RecA splice inh 1.4, Arbovirus inh 2 and Mtb betalactam 0.
Screening O=C(Nc1ccc2[nH]c(=O)[nH]c2c1)c1cc(F)c(F)cc1Cl returned Mtb growth -10%, RecA splice inh -2.3 and Mtb betalactam -6.
`COc1ccc(NS(=O)(=O)c2cc([N+](=O)[O-])ccc2N/N=C\c2c(C)[nH]c3ccccc23)cc1` gave Mtb growth 2%, YopH inh 0, RecA splice inh -1.5, Arbovirus inh 7 and Mtb betalactam 10.
O=C(NCCc1c[nH]c2ccccc12)C(=O)Nc1cc2c3c(c1)CC(=O)N3CCC2 was read as RecA splice inh 2.8 and Mtb betalactam -11.
`O=C(N/N=C/c1c(O)n(C2CC2)c(=S)[nH]c1=O)c1ccccc1Cl` gave RecA splice inh -4.3 and Mtb betalactam 10.
`Cc1n[nH]c(=S)n1/N=C/c1ccc(OCc2ccc(Cl)cc2Cl)cc1` gave Mtb growth 7%, YopH inh -22, RecA splice inh 4.1, Arbovirus inh -15 and Mtb betalactam 6.
